TRPML1 blocker: qHTS for Inhibitors of the Human Mucolipin Transient Receptor Potential 1 (TRPML1) | Mucolipin-1 (Homo sapiens), Q9GZU1 | activity change, negative = inhibition, % (concentration not given with the values) | 390,000 compounds, 0.02% hits | TRPML1-inducible cells, Ca2+ dye fluorescence, FDSS; active compounds read low; inhibition of EC80 agonist-evoked calcium signal; in the data active means activity change below about -50%; inconclusive means about -30% to -50%; inactive means above about -30%;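 also: stimulus is agonist 54-4 at its EC80 concentration; % is scaled to controls: 0 for no effect and ±100 for the full control effect; the text of the record puts the active cut at -80%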
Target sequence (Q9GZU1 whole entry, looked up): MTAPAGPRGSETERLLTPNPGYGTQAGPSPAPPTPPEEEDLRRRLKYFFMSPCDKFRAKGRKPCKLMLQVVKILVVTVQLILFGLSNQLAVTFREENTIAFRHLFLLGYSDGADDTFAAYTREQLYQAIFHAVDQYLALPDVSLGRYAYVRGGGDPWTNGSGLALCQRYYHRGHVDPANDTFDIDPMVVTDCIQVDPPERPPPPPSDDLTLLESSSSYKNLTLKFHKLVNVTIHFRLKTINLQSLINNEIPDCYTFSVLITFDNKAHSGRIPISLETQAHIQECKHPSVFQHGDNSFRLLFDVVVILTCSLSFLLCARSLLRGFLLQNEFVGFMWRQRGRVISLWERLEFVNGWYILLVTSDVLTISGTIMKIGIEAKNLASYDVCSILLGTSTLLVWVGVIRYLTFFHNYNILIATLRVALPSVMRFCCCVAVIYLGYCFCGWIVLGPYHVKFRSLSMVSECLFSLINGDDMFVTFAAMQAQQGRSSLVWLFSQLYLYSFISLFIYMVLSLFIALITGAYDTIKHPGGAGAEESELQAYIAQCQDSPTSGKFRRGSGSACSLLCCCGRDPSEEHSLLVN
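Tet-induced TRPML1-DL cells loaded with Ca8 no-wash calcium dye were read kinetically on FDSS. Compound addition was followed by EC80 agonist 54-4 (4 uM final); inhibition was read over 110 s.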
ClpP mod: qHTS Assay for Activators of ClpP; ATP-dependent Clp protease proteolytic subunit (Bacillus subtilis (strain 168)), P80244; purified B. subtilis ClpP, FRET peptide cleavage, 20 min; Potency, µM (titrated, usually from 57.5 µM), for inactives: at the top dose activity change, negative = active; 340,000 compounds, 1.9% hits; AID 651965, 2013; active = well fitted falling curve with a large enough effect; inconclusive = small, poorly fitted or top-dose-only effect; inactive = no such curve, though single readings can be large or run the other way; also: potency is read from the fitted curve at half-maximal effect; the source files actives as falling curves though it sought activators and does not explain the sign; nearly all actives have a fitted effect of over 65% in size; many hits overshoot -100%
Target sequence (P80244 whole entry, looked up): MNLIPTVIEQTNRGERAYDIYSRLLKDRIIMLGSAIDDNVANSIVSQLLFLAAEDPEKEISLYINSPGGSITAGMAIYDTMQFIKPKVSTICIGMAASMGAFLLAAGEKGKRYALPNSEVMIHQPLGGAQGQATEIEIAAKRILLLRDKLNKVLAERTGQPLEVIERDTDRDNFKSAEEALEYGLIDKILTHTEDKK
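Buffer: 100 mM Tris/HCl pH8, 100 mM KCl, 0.05% low protease BSA, 2.5% glycerol, 0.01% Tween-20. ClpP 10 microg/mL final; 20 min RT; delta FRET normalized to ADEP and DMSO controls.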
gsp ag: qHTS for Agonist of gsp, the Etiologic Mutation Responsible for Fibrous Dysplasia/McCune-Albright Syndrome: qHTS; 340,000 compounds, 0.13% hits; Potency, µM (titrated, usually from 76.9 µM), for the others: at the highest dose activation (cAMP increase), actives largely listed as activators; gsp mutant cells, cAMP HTRF, 30 min; control for the full effect not named in the record; active = well fitted activation curve with a large enough effect; inconclusive = small, poorly fitted or top-dose-only effect, or another doubt; inactive = no such curve, though single readings can be large or run the other way; cell line not stated here;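 also: phosphodiesterase inhibitor Ro 20-1724 added with compounds to block cAMP breakdown; potency is read from the fitted curve at half-maximal effect; nearly all actives have a fitted effect of over 60% in size; about a fifth of the inactives were tested at one dose only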
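Cells stably selected in G418 were plated at 2000/well, grown 16-24 hr, then given compounds in DMSO with the PDE inhibitor […] (300 uM solution added) for 30 min at 37C; cAMP was read by HTRF.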
Menin-MLL FL inh: qHTS Assay for Inhibitors Targeting the Menin-MLL Interaction in MLL Related Leukemias: Competition With Fluorescein Labeled MLL-derived Peptide | AID 1766, 2009 | FP activity change, % at 61.4 µM | 290,000 tested, under 10 active | Fluorescence polarization, fluorescein-MLL peptide displacement from menin; inconclusive = falling polarisation curve, or a change in total fluorescence; inactive = total fluorescence flat and polarisation flat or rising; no compound was filed as active; the % refers to the polarisation; negative = inhibition;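 also: % of control where 0% means no effect; inhibitors lower the polarisation; unlabelled MLL peptide was the positive control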
TRPML1 ag: qHTS for Agonists of the Human Mucolipin Transient Receptor Potential 1 (TRPML1); TRPML1-expressing cells, Ca2+ dye fluorescence, FDSS; host cell line not named in the record; reference of the full effect not given here; activation, % (test concentration not listed); 410,000 compounds, 0.12% hits; in the data active = activation above about 50%; inconclusive = about 30% to 50%; inactive = below about 30%; also: 0% is about no effect; the text of the record puts the active cut at 80%
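Agonist activity was taken from a 110 s kinetic Ca2+ dye read on the FDSS after pinning compounds onto TRPML1-DL cells. The cells were seeded at 1,500/well with Tet inducer, incubated about 16 h, then dye-loaded at room temperature.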
gsp antagonist: qHTS for Antagonists of gsp, the Etiologic Mutation Responsible for Fibrous Dysplasia/McCune-Albright Syndrome: qHTS | gsp-mutant cells, cAMP HTRF, 30 min; control for the full effect not named in the record | Potency, µM (doses to about 76.9 µM), without a hit: top-dose activity change, negative = inhibition, hits mostly inhibitors | 340,000 compounds, 0.4% hits; active = falling curve of any shape with a large fitted effect; inconclusive = falling curve, mostly with a smaller effect; inactive = flat or rising curve; cell line not stated here;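 also: intracellular cAMP measured with PDE inhibitor Ro 20-1724 present during compound exposure; potency is read from the fitted curve at half-maximal effect; % is scaled to controls: 0 for no effect and ±100 for the full control effect; nearly all actives have a fitted effect of over 65% in size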
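G418-selected cells were plated in DMEM/10% FBS for 16-24 h at 37C, then treated with compounds plus the PDE inhibitor […] (300 uM solution added) for 30 min at 37C. Intracellular cAMP was measured by HTRF after 30 min lysis at room temperature.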
* hit, by the source's call; ? = inconclusive; . = no result given; [ ] = another dose, or the depositor's remark. No enrichment for hits; overall some 2.1% were active at least once.

SMILES | TRPML1 blocker | ClpP mod | gsp ag | Menin-MLL FL inh | TRPML1 ag | gsp antagonist
Cc1cc2occ(CC(=O)N(C)CC(=O)Nc3ccccc3Br)c2cc1C | -1 | -2.3% | ? | . | 0.1 | -9%
Cc1cc(NS(=O)(=O)c2c(C)c(C)cc(C)c2C)no1 | 8 | -0.4% | ? | . | 0.8 | -5%
O=C(c1ccc(-n2cncn2)c([N+](=O)[O-])c1)N1CCN(S(=O)(=O)c2ccc(Br)cc2)CC1 | -1 | 0.6% | -9% | . | 0.0 | -2%
NC(=S)N1CCCc2ccccc21 | 8 | -0.2% | -9% | 1.6 | 5.6 | 9%
Cn1c(-c2cnn(-c3ccccc3)c2-n2cccc2)n[nH]c1=S | 11 | -0.6% | -13% | 0.6 | 1.6 | -9%
C/C(=N/NC(=O)c1ccncc1)c1ccc(NC(=O)c2ccc(Cl)cc2Cl)cc1 | 19 | -1.3% | 0% | . | -0.3 | 13%
COc1ccc(C)cc1NC(=O)C1CCN(S(=O)(=O)c2ccc3[nH]c4c(c3c2)CCCCC4)CC1 | -14 | ? | . | . | 0.9 | .
O=C(NCCN1CCCC1=O)Nc1ccccc1 | 2 | -0.6% | -14% | 1.7 | -0.5 | 1%
Cc1nc(Nc2nc(CSc3ccc(Cl)cc3)cc(=O)[nH]2)nc2ccccc12 | 33 | 1.7% | -23% | 4.6 | 0.5 | 0%
O=C(CN1CCN(S(=O)(=O)c2ccc(Br)s2)CC1)NCC1CCCCC1 | -3 | -1.5% | -74%[inhibitor] | . | -0.3 | .

Ordered by SMILES length (falling): part of the list above
SMILES | TRPML1 blocker | ClpP mod | gsp ag | Menin-MLL FL inh | TRPML1 ag | gsp antagonist
O=C(c1ccc(-n2cncn2)c([N+](=O)[O-])c1)N1CCN(S(=O)(=O)c2ccc(Br)cc2)CC1 | -1 | 0.6% | -9% | . | 0.0 | -2%
Cc1nc(Nc2nc(CSc3ccc(Cl)cc3)cc(=O)[nH]2)nc2ccccc12 | 33 | 1.7% | -23% | 4.6 | 0.5 | 0%
O=C(CN1CCN(S(=O)(=O)c2ccc(Br)s2)CC1)NCC1CCCCC1 | -3 | -1.5% | -74%[inhibitor] | . | -0.3 | .
Cn1c(-c2cnn(-c3ccccc3)c2-n2cccc2)n[nH]c1=S | 11 | -0.6% | -13% | 0.6 | 1.6 | -9%

Going on with the list.
SMILES | TRPML1 blocker | ClpP mod | gsp ag | Menin-MLL FL inh | TRPML1 ag | gsp antagonist
CCC(Sc1nc(C)cc(C)n1)C(=O)Nc1nccs1 (stereo unspecified) | 5 | 1.2% | ? | . | -0.3 | 7%
O=C(NCCc1ccc(Cl)cc1)c1cc(-c2ccc(Cl)cc2)n[nH]1 | -13 | 0.3% | . | . | 0.2 | .
O=S(=O)(NCC(c1ccco1)N1CCN(c2ccc(F)cc2)CC1)c1cc(F)ccc1F (stereo unspecified) | 5 | -4.7% | . | . | 0.3 | .
COc1ccccc1NC(=O)CSc1nnc(CCNC(=O)c2ccc(C)cc2)n1C | 11 | 2.6% | 18% | 0.2 | 3.8 | -9%
CNC(=O)c1c(NC(=O)c2ccc(N3C(=O)CCC3=O)cc2)sc2c1CCC(C)C2 (stereo unspecified) | 4 | 0.6% | ? | . | 1.3 | -17%
COCCNC(=O)C1(C)CCCN(C(=O)c2cccc(OC(F)(F)F)c2)C1 (stereo unspecified) | 15 | 1.8% | . | . | 0.8 | .
O=C(c1ccco1)N1CCN(C(=O)C2CCCc3c2[nH]c2ccc(Cl)cc32)CC1 (stereo unspecified) | 10 | -0.3% | -24% | 2.9 | 3.0 | ?
Nc1c(C(=O)N/N=C/c2ccc([N+](=O)[O-])cc2)cnn1-c1ccccc1 | -1 | . | ? | 3.6 | -0.5 | -4%
CCn1c(SCC(=O)Nc2cccc(C)n2)nc2c1c(=O)n(C)c(=O)n2C | -2 | . | 21%[15.4 µM] | -0.6 | 0.5 | -13%
Nc1c(Cl)ncnc1N/N=C/c1cccc(O)c1 | 11 | -1.1% | 2% | -5.3 | 0.2 | -4%
Cc1onc(-c2c(Cl)cccc2Cl)c1NC(=O)NNc1ccccc1 | ? | 1.1% | ? | 3.0 | -0.4 | 19%
O=C(O)C1C(C(=O)O)C1(c1ccccc1)c1ccccc1 (stereo unspecified) | 13 | . | 20%[15.4 µM] | -0.2 | -0.1 | 8%
Cc1cccc(N2C(=O)N(c3ccccc3C)C3CS(=O)(=O)CC32)c1 (stereo unspecified) | -19 | 28µM* | -4% | -5.2 | 0.0 | -11%
CCOC(=O)c1c(Cc2ccccc2)c[nH]c1C | 4 | 1.4% | -63%[inhibitor] | 4.0 | 2.6 | -1%
Cc1occc1-c1nnc(SCC(=O)NCc2cccs2)n1CC1CCCO1 (stereo unspecified) | 0 | -1.8% | -1%[15.4 µM] | 1.2 | -0.5 | -5%
O=C(NC1CCCC1)c1c[nH]c2ccc(S(=O)(=O)Nc3cccc(C(F)(F)F)c3)cc2c1=O | -15 | -21% | . | . | -0.5 | .
CCc1cccc(C)c1NC(=O)Nc1csc2c1CCCC2 | 2 | -1.3% | . | . | -0.7 | .
O=C(c1cnn2c(C(F)F)cc(C3CC3)nc12)N1CCCC1 | 2 | -4.9% | 7% | -1.6 | 1.8 | -11%
Cn1c(SCC(=O)Nc2ccccc2C(F)(F)F)nc2c(c1=O)SCC2 | -11 | -1.2% | -10%[15.4 µM] | . | -0.3 | -17%
Cc1ccc(S(=O)(=O)N2CCOCC2)cc1NC(=O)COC(=O)c1cnccn1 | -8 | 0.8% | ? | . | 0.6 | 3%
CC1CCCN(C(=O)c2ccc(S(=O)(=O)N3CCC(c4nc5ccccc5s4)CC3)cc2)C1 (stereo unspecified) | -9 | 0.5% | -12% | . | 2.1 | ?
COc1cccc(NC(=S)N(CCN2CCCCC2)Cc2ccco2)c1 | 11 | . | 14% | 1.0 | 0.1 | -1%
COc1ccccc1NS(=O)(=O)c1cc(NC(=O)CCC(=O)c2cccs2)ccc1Cl | 7 | -0.8% | -1%[15.4 µM] | 5.6 | 1.4 | -11%
CC(Oc1ccc(Br)cc1)C(=O)Nc1cc(Cl)ccc1N1CCN(C)CC1 (stereo unspecified) | -15 | . | 11%[15.4 µM] | . | -0.3 | 0%
CN1C(=O)NC(c2cccc(F)c2)C2=C1CC(C)(C)CC2=O (stereo unspecified) | -9 | 0.1% | -13% | -3.9 | 1.4 | 10%
COc1cc(NC(=S)Nc2ccc(S(=O)(=O)N3CCOCC3)cc2)cc(OC)c1OC | -11 | -1.2% | -3% | 1.1 | 0.6 | -7%
Cc1ccc(CNC(=O)Cc2ccc(-n3c(=O)[nH]c4ccsc4c3=O)cc2)cc1 | -7 | -5.4% | 19%[15.4 µM] | -0.3 | -0.2 | 8%
CN(Cc1ccccc1F)C(=O)C(Cc1ccccc1)NC(=O)c1ccccc1 (stereo unspecified) | -5 | 0.9% | 9%[15.4 µM] | . | 0.0 | -1%
C/C(=N\NC(=O)c1cccc(N/N=C(\C)c2ccncc2)c1)c1ccncc1 | 23 | -1.2% | ? | 5.3 | 2.6 | 5%
COc1cc(/C=N/n2c(C)nc3ccccc3c2=O)cc(OC)c1O | -5 | 0.2% | ? | 5.3 | -0.5 | -2%
O=C(C1CC(=O)N(c2ccccc2)C1)N1CCN(c2ccccc2F)CC1 (stereo unspecified) | 13 | 0.9% | -8%[15.4 µM] | . | 0.0 | 10%
O=C(O)COCc1nc2ccccc2[nH]1 | 3 | -1.2% | 16% | 5.8 | 0.3 | 13%
CCOC(=O)N1CCC(NC(=O)COc2cc(=O)n(C)c3ccccc23)CC1 | -9 | -12% | 2% | 3.7 | -0.3 | 3%
CC(=O)O/N=C(/C)c1ncc(C(F)(F)F)cc1N1CCOCC1 | 5 | 14µM* | 4% | -0.3 | 0.6 | -1%
Cc1ccccc1Cn1cc(C)c(=O)[nH]c1=O | 50 | . | 12% | -0.9 | -0.2 | 7%
CCN1C(=O)[C@@H]2[C@@H](c3ccc(-c4cccc(Cl)c4)c(OC)c3)N3CCCC[C@@]3(C(=O)OC)[C@@H]2C1=O | 35 | -15% | . | . | -0.6 | -18%
C/C(=N\NC(=O)C(O)(c1ccccc1)c1ccccc1)c1ccc(C)o1 | -7 | . | -14% | -0.7 | -1.0 | -6%
CC(C)CC(C(=O)O)N1C(=O)C2C3CC(C2C1=O)C1C(c2ccccc2)c2sc(=O)[nH]c2SC31 (stereo unspecified) | -19 | 1.1% | -18% | -9.9 | -0.1 | 25%
COc1ccc(C)cc1NC(=O)Cn1c(=O)cc(C)c2c(C)nn(C)c21 | 23 | -0.8% | . | . | 0.1 | .
O=C(NC(=S)Nc1ccc(F)cc1)c1ccc2c(c1)OCCO2 | -14 | 14% | -5% | -0.7 | 3.9 | 2%
CC(=O)Nc1ccc2sn(-c3ccccc3)c(=O)c2c1 | -4 | -1.9% | -72%[inhibitor] | . | 2.6 | .
CCCCn1c(N)c(N(C)C(=O)CCCn2c(=O)oc3ccccc32)c(=O)[nH]c1=O | 7 | -4.9% | -50%[inhibitor] | . | -0.4 | .
CC1(C)CC(=O)C(C2c3ccccc3S(=O)(=O)c3ccccc32)C(=O)C1 | 9 | -0.7% | 2% | -4.9 | -0.1 | -3%
CC(=O)c1ccc(NC(=O)CSc2nnc(NC(=O)CN3CCOCC3)s2)cc1 | 4 | -2.0% | -16% | 4.6 | -0.7 | 3%
CCCCNc1c(-c2ccc(OC)c(SC(C)CC)c2)nc2cnccn12 (stereo unspecified) | 37 | -12% | . | . | 2.1 | 4%
COc1ccc2cc(C(=O)c3ccccc3)c(=O)oc2c1 | -2 | -4.3% | 5% | 0.5 | -0.3 | 14%
COc1ccc(Cl)cc1C(=O)NNC(=O)CNC(=O)c1ccc(C)s1 | 12 | . | -22% | . | 0.0 | 6%
S=c1[nH]nc(Cn2nnc3ccccc32)n1-c1ccc(Cl)cc1 | -11 | -3.1% | -3% | 0.5 | 1.4 | 10%
Cc1ccc(OCC(=O)NCCNC(=O)c2ccncc2)cc1C | 12 | . | -1% | ? | -0.4 | 2%
Cc1cccc(NCc2n[nH]c(=S)n2-c2ccccc2)c1 | 4 | -2.4% | -38%[inhibitor] | -1.2 | -0.6 | 3%
Cn1c(=S)[nH]c(=O)c2ncc(=O)[nH]c21 | 7 | . | -6%[15.4 µM] | -3.3 | 1.1 | 10%
O=C(CNS(=O)(=O)c1ccccc1)N1CCN(c2ccccc2)CC1 | -8 | -0.6% | 7% | 4.2 | -0.2 | 8%

Assay outcomes: PubChem BioAssay, National Center for Advancing Translational Sciences (NCATS)
